VP16 counter = counter-screen for ROR gamma inhibitors: Gal4-VP16 reporter; Drosophila S2 Gal4-VP16 UAS-luciferase, luminescence, 20 h; Potency, µM (doses to about 53.6 µM), without a hit: at the top dose activity, negative = inhibition, usual class: inhibitors; 310,000 tested, 3.5% active; AID 2546;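 note: Gal4-VP16 expression switched on by copper sulfate through the metallothionein promoter; % is set by controls: 0 for no effect and ±100 for the full control effect; nearly all actives have a fitted effect of over 50% in size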
NPC1 prom act = NPC1 promoter activation; Huh7 NPC1 promoter luciferase reporter, 24 h; Potency, µM (top dose mostly 9.22 µM), inactives show at the highest dose activation, hits mostly activators; 320,000 tested, 2.4% active; AID 485313;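 note: % of control where 0% means no effect; nearly all actives have a fitted effect of over 60% in size; reporter is driven by a mutant NPC1 promoter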
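Luminescence from an NPC1 promoter-driven luciferase reporter in stably transfected Huh7 cells was measured after 24 h compound treatment at 37 °C, followed by 10 min ambient incubation with luciferase detection reagent.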
MBNL1 CUG block = inhibitors of human MBNL1 binding to CUG repeat RNA; TR-FRET MBNL1-His/biotin-(CUG)12 binding, 665/545 ratio; 280,000 tested, 0.036% active; Q9NR56; Potency, µM (top dose mostly 57.5 µM), for the others: at the highest dose activity change, negative = inhibition, hits mostly inhibitors; active = well fitted inhibition curve with a large enough effect in the signal ratio, with a control signal flat, not every such curve was filed as active; inconclusive = small, poorly fitted or top-dose-only effect, or effect the other way, or a change in a side signal; inactive = no such curve, though single readings can be large or run the other way; the % refers to the signal ratio; note: % is set by controls: 0 for no effect and ±100 for the full control effect
Target sequence (Q9NR56 whole entry, looked up): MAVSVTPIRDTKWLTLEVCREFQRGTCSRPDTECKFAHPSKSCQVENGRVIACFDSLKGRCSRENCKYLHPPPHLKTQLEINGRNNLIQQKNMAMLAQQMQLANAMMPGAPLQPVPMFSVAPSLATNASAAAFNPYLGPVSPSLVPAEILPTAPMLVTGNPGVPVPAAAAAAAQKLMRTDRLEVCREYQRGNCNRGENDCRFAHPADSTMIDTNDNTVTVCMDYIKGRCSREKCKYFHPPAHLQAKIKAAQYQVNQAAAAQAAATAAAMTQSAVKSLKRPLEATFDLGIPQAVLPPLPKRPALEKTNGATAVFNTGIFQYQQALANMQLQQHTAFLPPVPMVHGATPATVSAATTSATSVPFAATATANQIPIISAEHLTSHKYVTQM
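His-tagged MBNL1 binding to biotinylated (CUG)12 RNA was measured by TR-FRET using terbium anti-His antibody (0.055 ng/ul final) and streptavidin-XL665 (5 nM final). Compounds were titrated 92 nM to 58 uM; 60 min at room temperature.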
ELG1 genotox = genotoxicity induction in ELG1-luciferase HEK293T cells; HEK293T ELG1-luciferase reporter, luminescence, 16 h; Potency, µM (top dose mostly 46 µM), for the others: at the top dose activity change, positive = activation, hits mostly activators; 330,000 tested, 1.3% active; AID 504466; note: % of control where 0% means no effect; nearly all actives have a fitted effect of over 60% in size
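ELG1-luciferase HEK293T cells, 2,000/well; compound pinned in; 16 hr, 37 °C, 5% CO2; ONE-Glo, 30 min RT; luminescence on CCD imager.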
uPA generation = blocks generation of uPA at the cell surface. cell surface uPA generation assay, qHTS. 330,000 tested, 0.31% active. AID 540303. Potency, µM (series often up to 38.3 µM), inactives show at the top dose activity change, negative = inhibition, usual class: inhibitors; active = well fitted inhibition curve with a large enough effect; inconclusive = small, poorly fitted or top-dose-only effect; inactive = no such curve, though single readings can be large or run the other way; tested in mouse RAW 264.7 cells; note: % is set by controls: 0 for no effect and ±100 for the full control effect; nearly all actives have a fitted effect of over 55% in size
Numbers without * were called inactive; ? = inconclusive; . = no result given; & = joins results of further samples; [ ] = dose if it differs, or a comment. Unless noted, calls come from the whole dose curve; as a rule, active = well fitted curve in the direction sought with a large enough effect; inconclusive = small, poorly fitted or top-dose-only effect, or another doubt; inactive = no such curve, though single readings can be large; an effect the other way counts as inactive or inconclusive. Potency is the fitted concentration of half-maximal effect. A portion of the library. The share of hits here may be higher or lower than overall.

Start of the listing, in advance, 3 compounds:
1	CN1C2CCC1C(C(=O)O)C(OC(=O)c1ccccc1)C2 (stereo not given)
2	CNCC[C@H](Oc1ccc(C(F)(F)F)cc1)c1ccccc1
3	CN(CCCCC(=O)/C=N/O)Cc1ccccc1 (tested in a mixture with another compound)
Assay by compound	1	2	3
uPA generation	2%	-24%	-1%
ELG1 genotox	0%	20%	0%
MBNL1 CUG block	.	.	-9%
NPC1 prom act	.	-31%[inhibitor][46.1 µM]	-2%
VP16 counter	1%	-22%	-7%

The list itself, from the start:
1	CN1C2CCC1C(C(=O)O)C(OC(=O)c1ccccc1)C2 (stereo not given)
2	CNCC[C@H](Oc1ccc(C(F)(F)F)cc1)c1ccccc1
3	CN(CCCCC(=O)/C=N/O)Cc1ccccc1 (tested in a mixture with another compound)
4	NC1CCCCC1N (stereo not given)
5	O=C(Nc1ccc(F)cc1F)c1cccnc1Oc1cccc(C(F)(F)F)c1
6	CN1CCC23c4c5ccc(O)c4O[C@@H]2[C@H](O)C=CC3C1C5 (stereo not given in full)
7	NC1CCCC[C@H]1N (stereo not given in full)
8	CCOC(=O)c1ccccc1N
9	CCCCCCCCCCCCCCCC[N+](C)(C)C
Assay by compound	1	2	3	4	5	6	7	8	9
uPA generation	2%	-24%	-1%	.	.	12%	.	18%	?
ELG1 genotox	0%	20%	0%	.	0%	-2%	.	0%	0%
MBNL1 CUG block	.	.	-9%	.	0%	.	.	.	.
NPC1 prom act	.	-31%[inhibitor][46.1 µM]	-2%	.	-1%	.	.	.	-1%
VP16 counter	1%	-22%	-7%	-9%	23%&-8%	.	1%&-16%	3%	?

Filtered by structure, the entries above containing a halogen
2	CNCC[C@H](Oc1ccc(C(F)(F)F)cc1)c1ccccc1
5	O=C(Nc1ccc(F)cc1F)c1cccnc1Oc1cccc(C(F)(F)F)c1
Assay by compound	2	5
uPA generation	-24%	.
ELG1 genotox	20%	0%
MBNL1 CUG block	.	0%
NPC1 prom act	-31%[inhibitor][46.1 µM]	-1%
VP16 counter	-22%	23%&-8%
